# TRPML1 agonist = activates the human TRPML1 channel | Q9GZU1 | TRPML1-expressing cells, Ca2+ dye fluorescence, FDSS; host cell line not named in the record; reference of the full effect not given here | activation, % (concentration not given with the values) | 410,000 compounds, 0.12% hits | AID 624414; in the data active = activation above about 50%; inconclusive = about 30% to 50%; inactive = below about 30%; further: 0% is about no effect; the text of the record puts the active cut at 80%
# Target sequence (Q9GZU1 whole entry, looked up): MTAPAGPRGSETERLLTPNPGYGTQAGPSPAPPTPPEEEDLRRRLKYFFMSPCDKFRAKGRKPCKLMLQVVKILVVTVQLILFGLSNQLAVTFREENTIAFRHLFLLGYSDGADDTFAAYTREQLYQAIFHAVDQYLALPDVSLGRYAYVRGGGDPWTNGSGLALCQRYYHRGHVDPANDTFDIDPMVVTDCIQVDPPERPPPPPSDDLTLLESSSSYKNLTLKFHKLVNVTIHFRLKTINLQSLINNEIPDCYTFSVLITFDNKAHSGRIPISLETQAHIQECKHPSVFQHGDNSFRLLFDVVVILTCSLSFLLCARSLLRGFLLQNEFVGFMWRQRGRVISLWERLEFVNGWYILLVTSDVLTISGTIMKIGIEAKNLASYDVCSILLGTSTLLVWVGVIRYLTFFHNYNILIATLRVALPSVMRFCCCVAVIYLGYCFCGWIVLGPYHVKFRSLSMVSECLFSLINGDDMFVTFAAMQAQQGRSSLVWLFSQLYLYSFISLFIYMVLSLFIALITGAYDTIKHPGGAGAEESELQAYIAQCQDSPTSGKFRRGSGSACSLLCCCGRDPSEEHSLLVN
#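 Calcium fluorescence on an FDSS kinetic reader gave the read-out. Tet-induced TRPML1-DL cells were plated overnight, dye-loaded (Ca8 with quencher, 45-90 min, room temperature, dark), then read 110 s after compound addition, and again 110 s after 4uM final 54-4 (EC80).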
# Sfp inh = inhibitors of Bacillus subtilis Sfp phosphopantetheinyl transferase; Potency, µM, for inactives: max response, negative = inhibition, most hits filed as inhibitors; AID 1490; 310,000 compounds, 3.5% hits; Biochemical Sfp PPTase activity, qHTS; active means well fitted inhibition curve with a large enough effect; inconclusive means small, poorly fitted or top-dose-only effect, or another doubt; inactive means no such curve, though single readings can be large or run the other way;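 further: the enzyme is Sfp with the accession as filed and its product quenches rhodamine fluorescence; potency means the concentration at half of the fitted maximal effect; 0% = enzyme reaction without inhibitor and -100% = no enzyme wells; top concentration of the series not given in the record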
#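 Step 1, compound plus 15 nM Sfp-PPTase, 15 min, room temperature. Step 2, add rhodamine-CoA (5 uM) and BHQ-2-YbbR (12.5 uM). Step 3, read 525/598 nm fluorescence at 0 and 30 min.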
# Menin MLL FP FL = inhibitors of human menin-MLL interaction, wild-type MLL peptide | 290,000 tested, under 10 active | Fluorescence polarization, fluorescein-MLL peptide displacement from menin | FP activity change, % at 61.4 µM; inconclusive = falling polarisation curve, or a change in total fluorescence; inactive = total fluorescence flat and polarisation flat or rising; no compound was filed as active; the % refers to the polarisation; negative = inhibition;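 further: % of control where 0% means no effect; inhibitors lower the polarisation; unlabelled MLL peptide was the positive control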
# TRPV1 PAM = enhances activation of the human vanilloid receptor TRPV1 | Q8NER1 | TRPV1-expressing cells, Fluo-8 calcium influx, capsaicin EC20 potentiation; host cell line not named in the record; control for the full effect not named in the record | potentiation, % at 8.33 µM | 320,000 compounds, 0.02% hits | AID 540277; active means potentiation above 80%; inconclusive means 30% to 80%; inactive means below 30%; further: 0% is about no effect
#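 Fluo-8 calcium influx in TRPV1-expressing cells, kinetic read (ex 480/em 520 nm). Compound added and read 3 min for agonist activity, followed by capsaicin at EC20 final and 2 min further read for enhancement.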
# TRPML1 blocker = blocks the human TRPML1 channel. 390,000 compounds, 0.02% hits. activity change, negative = inhibition, % (no concentration beside the values). AID 624415. Q9GZU1. TRPML1-inducible cells, Ca2+ dye fluorescence, FDSS; active compounds read low; inhibition of EC80 agonist-evoked calcium signal; in the data active means activity change below about -50%; inconclusive means about -30% to -50%; inactive means above about -30%;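 further: stimulus is agonist 54-4 at its EC80 concentration; on the % scale 0 is the no-effect control and ±100 the full control effect; compound concentration not given in the record; the text of the record puts the active cut at -80%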
#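 Tet-induced TRPML1-DL cells loaded with Ca8 no-wash calcium dye were read kinetically on FDSS. Compound addition was followed by EC80 agonist 54-4 (4 uM final); inhibition was read over 110 s.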
# PINK1 modulator = modulators of PINK1 expression. PINK1 immunofluorescence, high-content cytometry, 24 h. Potency, µM (series often up to 76.6 µM), without a hit: at the top dose activation (PINK1 increase), hits mostly activators. 410,000 compounds, 0.2% hits. AID 624263; active = well fitted activation curve with a large enough effect; inconclusive = small, poorly fitted or top-dose-only effect; inactive = flat fitted curve, though single readings scatter; cell line not stated here;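 further: potency means the concentration at half of the fitted maximal effect; % of control where 0% means no effect; nearly all actives have a fitted effect of over 65% in size; a mitochondrial uncoupler was the plate control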
#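 Cells are seeded, rested 12 hours, then given compound at five concentrations or DMSO for 24 hours. After fixation, blocking and antibody staining, PINK1 amount and mitochondrial localization are scored; CCCP serves as control.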
# ClpP mod = qHTS Assay for Activators of ClpP; purified B. subtilis ClpP, FRET peptide cleavage, 20 min; Potency, µM (top dose mostly 57.5 µM), without a hit: at the top dose activity change, negative = active; 340,000 compounds, 1.9% hits; AID 651965, 2013; active = well fitted falling curve with a large enough effect; inconclusive = small, poorly fitted or top-dose-only effect; inactive = no such curve, though single readings can be large or run the other way; further: potency means the concentration at half of the fitted maximal effect; the source files actives as falling curves though it sought activators and does not explain the sign; nearly all actives have a fitted effect of over 65% in size; many hits overshoot -100%
# Target sequence (P80244 whole entry, looked up): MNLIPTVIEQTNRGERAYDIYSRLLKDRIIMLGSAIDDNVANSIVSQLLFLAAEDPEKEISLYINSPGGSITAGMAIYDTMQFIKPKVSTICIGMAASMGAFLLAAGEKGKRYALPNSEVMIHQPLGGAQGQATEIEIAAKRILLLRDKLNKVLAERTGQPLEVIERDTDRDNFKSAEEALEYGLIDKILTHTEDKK
#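 FRET quenching reversal measured ClpP activation: 10 microg/mL B. subtilis ClpP at pH 8 with the FRET-FV decapeptide, read at 430 nm after 320 nm excitation. The 20-min minus 0-min signal was scaled between DMSO/no-enzyme wells and ADEP (5.8 microM final).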
# Active calls of the source: *; ? = inconclusive; · = not tested or not shown; & = joins results of further samples; [ ] = another dose, or the depositor's remark.
SMILES,TRPML1 agonist,Sfp inh,Menin MLL FP FL,TRPV1 PAM,TRPML1 blocker,PINK1 modulator,ClpP mod
CC(C)OC(=O)C(C(=O)C(F)(F)F)c1cc(NS(=O)(=O)c2ccc3c4c(cccc24)C(=O)N3)ccc1O (stereo not drawn),-0.7,·,·,·,-18.3,0.2%,2.2%
CN(C)C(=O)C1Cc2ccccc2CN1S(=O)(=O)c1cccs1 (stereo not drawn),-0.6,11.7%,0.6,20.4,10.8,1.9%,·
O=S(=O)(Cc1cc(Cl)nc(-c2ccccc2)n1)c1ccccc1,0.7,3.0%,4.4,-2.2,5.3,?,-0.8%
Cc1ccc(S(=O)(=O)NC(=O)C2(C)CCN2C(=O)C2(c3ccc(Cl)cc3)CCC2)nc1 (stereo not drawn),-0.5,·,·,·,·,0.7%,2.4%
Cc1ccc(OCCCC(=O)Nc2ccc(N3CCOCC3)cc2)cc1,-0.3,-11.7%,1.8,3.5,4.0,0.7%,0.0%
CCN(CC)S(=O)(=O)c1ccc(Cl)c(NC(=O)COc2ccc(OC)cc2)c1,-1.1,16.2%,3.0,-3.2,32.8,15.5%,2.2%
COCCn1c(SCC(=O)NCC2CCCO2)nc2c(c1=O)SC(C)C2 (stereo not drawn),-0.1,14.8%,2.6,4.7,-2.5,2.3%,-0.5%
O=[N+]([O-])c1ccc(/C=N/NC(=S)Nc2ccc(Cl)cc2Cl)s1,0.0,56.2µM*,11.7,6.5,7.9,17.6%,0.0%
COc1ccc(S(=O)(=O)N2CCCC(C(=O)Nc3cccc(C(C)=O)c3)C2)cc1 (stereo not drawn),2.1,4.1%,-5.6,-10.1,4.2,2.6%,0.5%
CC1CCN(C(=O)COC(=O)c2cccc(NS(=O)(=O)c3ccccc3)c2)CC1,1.6,·,·,9.6,5.2,-1.6%,·
O=C(N/N=C/c1ccccc1)c1ccc(-c2ccccc2)cc1,0.2,2.8%,-0.6,-11.6,7.7,-0.2%,-1.6%
Cc1nn(Cc2noc(C(=O)NCCc3ccccn3)n2)c(C)c1Br,-0.3,18.6%,1.0,11.4,4.9,0.8%,·
NC(=O)C1CCN(C(=O)c2cnn(-c3ccccc3)c2NC(=O)c2ccco2)CC1,0.1,3.6%,3.6,-7.6,-9.3,-0.2%,-3.5%
Clc1ccc(-c2cn3cc(Cc4ccccc4)sc3n2)cc1,0.5,·,·,·,3.7,0.3%,-0.2%
COC(=O)c1cn(Cc2ccccc2C)nn1,0.1,-2.0%,-4.0,2.7,-11.1,-1.2%,-0.6%
COc1ccccc1N(CC(=O)N1CCN(c2ccccc2)CC1)S(=O)(=O)c1ccc(C)cc1,0.4,5.2%,0.1,-3.6,19.2,1.6%,0.9%
CC(=O)N(C)c1ccc(NC(=O)C(Sc2ccccc2)c2ccccc2)cc1 (stereo not drawn),0.0,6.1%,1.0,-5.4,1.5,2.6%,·
Cc1ccc(-n2cc(C(=O)c3ccccc3O)cn2)cc1,0.4,8.8%,2.9,16.2,-13.4,1.0%,-0.2%
CC(=O)c1c(O)cc(C)n(Nc2nc(C)cc(C)n2)c1=O,-0.3,-15.6%,-1.6,-0.4,1.2,-0.9%[38.3 µM],-0.4%
CS(=O)(=O)c1ccc(-c2sc3cc4c(cc3c2C(=O)NN2CCOCC2)OCO4)cc1,0.7,·,·,·,-2.1,0.6%,?
Cc1ccc(S(=O)(=O)NCc2ccco2)c(C)c1C,0.1,1.4%,1.5,2.5,48.2,-0.6%,-0.6%
Cc1cc(C)c(N=Cc2c(O)n(-c3nccs3)c(=O)c3ccccc23)c(C)c1,2.5,1.1%,1.9,-5.8,-1.8,-0.1%,-3.0%
CNC(=O)c1ccc2c(c1)N=C(C)c1cc(C)ccc1S2,-0.5,·,·,·,5.7,14.9%,0.7%
Cc1cc(C(=O)Nc2ccccc2C(=O)O)c(C)o1,-0.2,13.5%,1.6,-3.0,4.9,0.6%,·
CCc1ccc(NC(=O)c2sc3nc(C)cc(C)c3c2NC(=O)c2ccccc2OC)cc1,1.6,·,·,·,2.6,-1.1%,41.1%
O=C(C1CCCCC1)N1CCCC(c2nc(-c3ccc(F)cc3)no2)C1 (stereo not drawn),-0.4,9.5%,0.1,-17.2,-6.1,2.9%[38.3 µM],-2.4%
CN(CC(=O)NCc1ccc(F)cc1)S(=O)(=O)c1cccc2nsnc12,-0.1,17.6%,-1.0,1.8,22.9,-4.2%,-0.7%
Nc1nc(F)cc(NCc2ccccc2)n1,1.5,5.1%,1.5,2.1,37.0,-1.9%,0.0%
Brc1cccc(CNCc2cccs2)c1,0.7,2.0%,·,-12.0,0.3,3.1%,-1.1%
Cc1ccc(NC(=O)/C(C#N)=C/c2cc(C)n(-c3ccc(Br)cc3)c2C)cc1C,-0.8,·,·,·,19.1,2.1%,-16.8%
COc1cc(OC)cc(-c2c(-c3ccc(F)cc3)c3cc(-c4cnc(OC)nc4)ccc3n2C)c1,0.7,·,·,2.3,-10.7,-0.1%,?
COc1ccc(N2CCN(c3nc(-c4ccccc4F)nc4ccccc34)CC2)cc1,0.7,·,·,·,-7.1,2.8%,-3.1%
COc1cc(CN2CCC(CO)(CCOc3ccccc3)CC2)cc(OC)c1,0.3,-2.9%,-1.3,5.8,4.6,-0.7%,-2.0%
N#CC1(NC(=O)CSc2nnc(-c3ccccc3F)n2N)CCCCC1,0.8,·,·,14.9,-19.7,0.3%,·
CC(/C=N/NC(=O)c1cccc(F)c1)=C\c1ccccc1,1.3,-19.8%,0.6,13.0,17.1,2.8%,-2.8%
N#CCCN(Cc1ccccc1)C(C(=O)NC1CCCCC1)c1cc2ccccc2o1 (stereo not drawn),-0.7,·,·,·,·,0.2%,-1.0%
O=C(Cc1ccc([N+](=O)[O-])cc1)NCCS(=O)(=O)N1CCN(c2ccccc2)CC1,-0.3,·,·,·,-1.4,4.7%,0.1%
C=CCOC(=O)C1=C[C@H](c2ccc(Br)cc2)C[C@H](OCc2ccc(CO)cc2)O1,0.5,·,·,·,23.5,-0.8%,0.3%
CC1CCCCN1C(=O)CN1C(=O)NC2(CCCCC2C)C1=O (stereo not drawn),-0.1,·,·,22.9,2.2,-0.5%,1.6%
Cc1ccc(Sc2ccc(NC(=O)CCl)cc2)cc1C,1.0,-13.9%,5.1,-8.7,-15.5,1.2%,1.7%
CCOC(=O)c1cc(=O)n(-c2ccc(Cl)cc2C)[nH]1,1.8,-18.8%,12.1,7.8,5.7,-1.9%,-2.1%
Cc1c(Cl)cccc1N=c1c([N+](=O)[O-])nn(-c2ccccc2)n1O,2.1,?,0.3,3.5,4.7,?,1.1%
CC(=O)Oc1ccc(-n2c(=O)c3ccccc3c3ccccc3c2=O)cc1,1.2,20.1%,-2.8,4.2,-11.9,-3.4%,·
O=C(c1cccnc1)N1CCN(C(=O)c2ccccc2F)CC1,-0.2,15.3%,0.9,-13.2,-1.9,1.3%,-0.7%
O=C(O)c1ccccc1SCC(=O)N1CCCCC1,0.5,22.5%,-5.3,-10.1,0.8,-0.9%,0.7%
CN(C)C1CN(Cc2cn(Cc3cccc(C(F)(F)F)c3)nn2)S(=O)(=O)C1 (stereo not drawn),-0.5,·,·,·,·,0.2%,0.7%
COc1ccc(-n2c(Cc3cccn3C)nnc2SCC(=O)N2CCCc3ccccc32)cc1,0.7,-12.2%,4.2,-9.2,-7.3,0.6%[38.3 µM],-1.4%
CCN1CCN(Cc2c(O)ccc3oc(C)c(C(=O)Nc4ccc(OC)c(Cl)c4)c23)CC1,-0.3,·,·,·,-7.3,0.3%,-1.2%
CC(C)c1nnc(NC(=O)C2CCN(C(=O)c3ccco3)CC2)s1,1.4,-25.2%,9.7,5.0,18.9,0.2%,·
CCOC(=O)CN(C(=O)CSc1nnc(-c2ccc(OC)c(OC)c2)o1)c1ccccc1,-0.8,12.4%,-0.6,6.4,-14.1,-7.0%[38.3 µM],27.9%
Cc1cccc(NC(=O)CSc2nnc(Cn3nnc(-c4ccccc4)n3)n2-c2ccccc2)c1,-0.2,21.6%,-0.1,9.6,0.7,?,-0.8%
Cc1ccc(Cn2c(C(=O)NCc3ccccc3Cl)cc3sccc32)cc1,-0.1,·,·,·,3.4,4.2%,-21.9%
CCCOC(=O)Oc1ccc2c(=O)c(Oc3cc(C)cc(C)c3)coc2c1,2.6,-16.7%,6.8,0.8,11.7,2.1%,-0.4%
CCOC(=O)C1CCN(S(=O)(=O)c2c(C(=O)N3CCCCC3)c(C)n(C)c2C)CC1,-0.3,16.8%,0.3,7.6,-10.4,-0.9%,0.2%
C[C@H](CO)N1C[C@H](C)[C@H](CN(C)C(=O)N[C@H](C)c2ccccc2)OCc2ccccc2-c2c(n(C)c3ccccc23)C1=O,3.8,·,·,·,22.3,0.7%,-3.0%
Cc1ccc(NC(=O)C2CCN(C(=O)N3CCOc4ccccc43)CC2)cc1,0.1,9.0%,4.2,10.8,23.4,1.0%,-0.5%
COc1ccc(CCNC(=O)c2nonc2N)cc1OC,-0.2,22.5%,0.9,1.2,-12.3,-0.9%,-3.7%
Cc1ccc(NC(=O)c2ncn(CC(=O)NCc3ccccc3)n2)cc1C,-1.2,·,·,·,-14.4,0.4%,-0.9%
CN(C)S(=O)(=O)Oc1ccsc1C(=O)Nc1ccc(Cl)c(Cl)c1,0.8,-1.8%,4.4,5.2,3.1,4.2%,2.3%
CCN(CC(=O)Nc1ccc(NC(C)=O)cc1)C(=O)c1c(C)nn(-c2ccc(F)cc2)c1Cl,3.0,·,·,·,-8.8,0.9%,-4.5%

# Continuation.
SMILES,TRPML1 agonist,Sfp inh,Menin MLL FP FL,TRPV1 PAM,TRPML1 blocker,PINK1 modulator,ClpP mod
N#Cc1cccc(NC(=O)CSc2nnc(-c3n[nH]c4ccccc34)o2)c1,-0.5,-7.6%,3.2,4.1,-17.3,2.7%,·
Cc1cccc(-c2cccc(NC(=O)C3CCCN(Cc4cccnc4)C3)c2)c1 (stereo not drawn),0.5,-12.8%,·,-3.6,-3.8,1.5%,-2.3%
CN1C[C@@H]2C(c3ccc(C(F)(F)F)cc3)C3(c4ccc(C#N)cc4)CC2(C3)[C@H]1c1ccccc1 (stereo partly drawn),1.5,-14.5%&-10.2%,5.2&2.3,-12.1,2.9,1.0%,-4.9%
CC(=O)Nc1ccc(S(=O)(=O)NCCSc2ccccn2)cc1,3.5,6.0%,1.8,6.2,-11.1,-1.7%,0.7%
